# Source: PubChem (several laboratories)
# YopH PTP inh: YopH tyrosine phosphatase inhibitors, primary screen, biochemical, fluorescence Ex485/Em525. inhibition, %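 (about 10 µM by stock and volumes)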. YopH tyrosine phosphatase [Yersinia enterocolitica]. actives 0.16% (n = 140,000). AID 898, 2007;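 active means inhibition of 50% or more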;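 further: controls were vehicle for no effect and minimum signal wells for full effect; inactives centre near -20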
# RecA splice inh: Mtb RecA intein splicing inhibitors, primary screen, biochemical, fluorescence, HTS. Protein RecA (Mycobacterium tuberculosis (strain ATCC 25618 / H37Rv)), P9WHJ3. inhibition, %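 (about 9 µM by stock and volumes)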. actives 0.75% (n = 290,000). cell-free RecA intein splicing. AID 2221, 2009; in the data active means inhibition above about 30%;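 further: 0% = vehicle wells and 100% = reference inhibitor control wells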
# Target sequence (P9WHJ3 whole entry, looked up, canonical isoform): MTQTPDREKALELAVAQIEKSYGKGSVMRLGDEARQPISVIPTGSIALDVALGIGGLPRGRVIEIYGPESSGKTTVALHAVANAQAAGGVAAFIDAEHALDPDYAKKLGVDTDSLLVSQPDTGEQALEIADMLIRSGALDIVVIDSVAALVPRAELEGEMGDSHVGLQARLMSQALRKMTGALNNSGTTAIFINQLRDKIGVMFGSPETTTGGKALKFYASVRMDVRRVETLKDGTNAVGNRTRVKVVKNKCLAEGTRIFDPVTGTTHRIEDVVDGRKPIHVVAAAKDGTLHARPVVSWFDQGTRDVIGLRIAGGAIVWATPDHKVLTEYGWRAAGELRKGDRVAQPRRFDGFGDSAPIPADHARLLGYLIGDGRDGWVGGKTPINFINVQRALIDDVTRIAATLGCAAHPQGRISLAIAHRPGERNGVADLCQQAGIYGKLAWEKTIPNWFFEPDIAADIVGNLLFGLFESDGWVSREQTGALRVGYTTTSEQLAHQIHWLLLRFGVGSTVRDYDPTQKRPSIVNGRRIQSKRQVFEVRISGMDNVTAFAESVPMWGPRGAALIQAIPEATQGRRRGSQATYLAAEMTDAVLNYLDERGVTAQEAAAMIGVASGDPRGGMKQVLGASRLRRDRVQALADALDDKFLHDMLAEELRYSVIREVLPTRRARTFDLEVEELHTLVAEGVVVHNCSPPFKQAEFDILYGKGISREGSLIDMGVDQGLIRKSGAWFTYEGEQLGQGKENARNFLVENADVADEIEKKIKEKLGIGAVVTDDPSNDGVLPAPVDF
# Arbovirus anti: antivirals against arbovirus infection, primary screen, cell-based, full library, 10K replicate subset; AID 1251, 2008; actives 0.37% (n = 200,000); arbovirus infection cell-based antiviral screen; inhibition, % at 10 µM;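 active means inhibition from about 30%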;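 further: bluetongue infection of BSR cells; cell survival read as ATP light after 72 h; 0% = infected wells without compound and 100% = uninfected wells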
# Mtb H37Rv: M. tuberculosis H37Rv growth inhibitors, H37Rv strain (AID 1626) | M. tuberculosis H37Rv growth inhibition; higher % means a stronger effect | inhibition, % at 10 µM, or IC50 in µM where a hit was titrated | actives 0.95% (n = 220,000);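 active means confirmed in a dose series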;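 further: bacteria incubated seven days before Alamar blue readout; 0% = bacteria only wells and 100% = bacteria with antibiotic wells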
# Mtb betalactam: beta-lactam sensitization of Mtb H37Rv, H37Rv; M. tuberculosis H37Rv growth with meropenem, percent inhibition; hits of this screen are not shown here; inhibition, % at 25 µM; actives 0.27% (n = 330,000); AID 434955, 2010;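 active means about 74% or more and at least 40 points above the plate without the antibiotic, then above 30% in a dose series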;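 further: growth measured after seven days incubation then overnight dye step; 0% = bacteria only wells and 100% = bacteria with antibiotic; twin plates without the antibiotic show which effects depend on it; some results filed as inactive read as strong as hits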
# Arbovirus anti repeat: recorded beside Arbovirus anti, whose call it bears; inhibition, %; measured here: 10K subset replicate screen; many hits read low in the repeat;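 first of two repeat runs on a subset; 0% = infected and 100% = uninfected wells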
# Numbers without * were called inactive; . = no result given; & = joins results of further samples. Not all compounds are listed. The share of hits here may be higher or lower than overall.
SMILES,YopH PTP inh,RecA splice inh,Arbovirus anti,Mtb H37Rv,Mtb betalactam,others
COC(=O)c1sc2ccccc2c1NC(=O)c1ccc(S(=O)(=O)N2CCC(C)CC2)cc1,-23,0.3,5,0%,0,
CCOC(=O)C1=C(C)N=c2s/c(=C/c3cccc([N+](=O)[O-])c3O)c(=O)n2C1c1ccccc1 (stereo unspecified),.,3.7,.,.,13,
O=C(CCNC(=O)c1ccccc1Cl)Nc1nc(-c2ccc3ccccc3c2)cs1,-22,7.0,-30,2%,-3,
COC(=O)C1C(=O)C2=C(CC1C)NC(C)=C(C(=O)OC1CCCCC1)C2c1ccc(N(C)C)cc1 (stereo unspecified),0,4.3,1,3%,-4,
CC(C)NC(=O)C1CC(=O)N(C(C)c2ccccc2)C1 (stereo unspecified),-18,0.2,-2,-2%,-2,
COc1cccc2cc(CC(=O)c3ccc(C)cc3C)c(=O)oc12,.,4.1,.,.,22,
NC(=O)[C@@H]1CC2(CC(c3cccc(NC(=O)CC(c4ccccc4)c4ccccc4)c3)=NO2)CN1C(=O)COc1ccc(Cl)cc1 (stereo partly specified),.,4.9,.,77%,99,
O=C(NC1CCCC1)c1cccc(Cn2cc([N+](=O)[O-])cn2)c1,-13,-0.7,-9,1%,-3,
Cc1nc(C(C)NC(=O)CCc2nnc(-c3ccsc3)o2)cs1 (stereo unspecified),.,-0.6,3,8%,6,
COc1ccccc1NS(=O)(=O)c1cc(NC(=O)C(C)(C)C)ccc1N1CCOCC1,.,-2.5,.,.,-4,
CCn1cc(C(=O)N[C@@H](CCSC)C(=O)NCCCN2CCOCC2)c(=O)c2cc3c(cc21)OCO3,.,0.2,.,.,-7,
Oc1ccccc1-c1nc(NC2CCCC2)c2ccccc2n1,.,-2.2,.,.,9,
CC(C)(C)c1ccc(OC(=O)N2CCCCC2)cc1,.,2.3,-3,-1%,2,
CC1CCN(c2ncnc3nc[nH]c23)CC1,-32,-2.4,6,17%,-7,
CCCCN(C(=O)c1ccc(S(=O)(=O)N2CCC(C)CC2)cc1)C1CCS(=O)(=O)C1 (stereo unspecified),.,1.5,.,.,1,
O=C(c1cc2ccccc2s1)N1CCN(c2ccccn2)CC1,.,2.7,.,.,3,
CN(C)CCNC(=S)Nc1ccc(Cl)cc1Cl,-22,0.5,7,4%,-3,
C/C=C(/C)C(=O)O[C@H]1[C@@H](O)c2c(ccc3ccc(=O)oc23)OC1(C)C,-27,-0.6,8,-10%,-2,
C[C@H]1C(=O)N(C)CCN1C(=O)c1cccc(OC2CCN(CC(C)(C)C)CC2)c1,.,2.2,.,.,3,
CC1(C)CC(=O)c2c(Cc3ccccc3)n[nH]c2C1,-7,1.3,-1,3%,-7,Arbovirus anti repeat=2
COc1ccc2nc(NC(=O)CN3CCOCC3)sc2c1,-1,-2.3,-6,-11%,-6,
COc1ccc(/C(O)=C2/C(=O)C(=O)N(CCN3CCOCC3)C2c2ccccn2)cc1 (stereo unspecified),-25,.,5,0%,3,
Cc1cc(NC(=O)c2cccc(F)c2)no1,1,-0.5,-2,.,-8,
COc1ccccc1C1NC=C([N+](=O)[O-])C=C1[N+](=O)[O-] (stereo unspecified),11,-1.5,-3,3%,-5,
CCOC(=O)N1CCN(C(=O)CN(c2ccc(OCC)cc2)S(C)(=O)=O)CC1,-17,-0.1,3,-9%,-5,
# Next part.
SMILES,YopH PTP inh,RecA splice inh,Arbovirus anti,Mtb H37Rv,Mtb betalactam,others
CC(=O)N(NC(=O)c1ccc(C)cc1)C1CC(=O)N(c2ccccc2Cl)C1=O (stereo unspecified),-19,2.0,7,0%,-3,
Cc1ccc(NC(=O)Nc2ccc([N+](=O)[O-])cc2)nc1,.,-1.5,-2,2%,-4,
CC1CCC/C(=N\NC(=O)COc2ccccc2Cl)C1 (stereo unspecified),5,1.2,1,0%,1,
Nc1c(C(=O)Nc2ccc3c(c2)OCCO3)nnn1Cc1ccc(Br)cc1,.,0.6,.,.,1,
CC(C)CCN1CCN(CC(c2ccccc2)c2ccccc2)CC1CCO (stereo unspecified),.,3.5,-11,6%,-7,
Cc1nnc(NC(=O)CSc2nnc(C)c(=O)n2N)s1,.,-0.8,.,.,3,
CC(C)Nc1nc(NC(C)C)nc(C(=O)OCCO)n1,-48,13,11,7%,-3,
COc1cccc(-n2c(SCc3cc(=O)oc4cc(O)c(O)cc34)nc3ccccc3c2=O)c1,-8,19,8,-1%,-3,
O=C(NC1CCCCC1)C1CCN(C(=O)c2ccc(-c3ccccc3)cc2)CC1,.,0.3,-12,3%,1,
O=C(COc1ccccc1Cl)Nc1ccc(Cl)cn1,-36,0.7,0,-5%,-1,
COc1ccc(NC(=O)n2ncc3cc(Cl)ccc32)cc1OC,.,7.6,.,.,3,
COc1ccc(-n2c(O)c(C=NCCCn3ccnc3)c(=O)[nH]c2=O)cc1,-1,-2.3,3,-10%,-10,
CC1Cc2ccccc2N1C(=O)CSc1nnc(N)s1 (stereo unspecified),.,2.6,.,.,3,
CC(=O)Nc1ccc(NC(=O)C2CCCN2C(=O)Nc2ccc(F)cc2)cc1 (stereo unspecified),.,-1.2,.,.,-1,
On1nnc2ccccc21,.,.,.,2%,-1,
C=CCOc1c(CNn2cn[nH]c2=S)cccc1OC,.,-3.1,-3,-11%,0,
COC(=O)[C@H](CC(C)C)NC(=O)N1CCCCC1C (stereo partly specified),.,-1.4,.,-5%,2,
Cc1nnc(Cn2cnc3c2c(=O)n(C)c(=O)n3C)o1,.,0.5,.,.,-6,
Cc1cc(C(=O)NNC(=O)c2cccs2)nn1C(C)(C)C,.,-0.2,.,.,-3,
NC(=O)C1(N2CCCCC2)CCN(C(=O)CSc2nc3ccccc3o2)CC1,13,-10,.,0%,-7,
COc1cccc(NC(=O)Nc2ccccc2Br)c1,.,-0.8,-4,7%,8,
Cc1nn(C(C)C(=O)NCCCN(Cc2ccccc2)C(C)C)c(=O)c2c1sc1ccccc12 (stereo unspecified),.,1.7,.,.,9,
Cc1cc(C(=O)CCC(=O)NCC2COc3ccccc3O2)c(C)s1 (stereo unspecified),.,1.8,.,.,-4,
CCOc1ccc(OCCCC(=O)N(C)CC(=O)Nc2ccc(N3CCOCC3)cc2)cc1,.,-0.9,.,.,-2,
Cc1c(C(=O)OCC(=O)N(C)c2ccccc2)oc2ccccc12,.,1.2,.,.,-2,
# Other entries.
SMILES,YopH PTP inh,RecA splice inh,Arbovirus anti,Mtb H37Rv,Mtb betalactam,others
O=C(Cn1ccc([N+](=O)[O-])n1)NCC1CCCO1 (stereo unspecified),.,2.2,.,.,-4,
Cc1ccc2[nH]cc(CCNC(=O)/C=C/c3ccco3)c2c1,.,6.3,.,0%,7,
CCn1c(=O)n(CC(=O)NCC2CCCO2)c(=O)c2c3c(sc21)CCCC3 (stereo unspecified),.,0.5,.,.,-1,
NC(=O)COC(=O)c1cccc(S(=O)(=O)N2CCCc3ccccc32)c1,.,0.5,0,4%,6,
Fc1cc(Br)ccc1NC(=S)Nc1ccccc1,-12,5.5,17,-3%,-3,
Cc1ccccc1OCC(O)Cn1c(=N)n(CCN2CCOCC2)c2ccccc21 (stereo unspecified),-13,-1.4&0.7,-19&-17,0%&-1%,-5&5,
COc1cc(/C=C2\CCOC2=O)cc(OC)c1OC,.,-1.0,.,-1%,4,
Cc1cccc(OCC(O)Cn2c(NCCCOC(C)C)nc3c2c(=O)[nH]c(=O)n3C)c1 (stereo unspecified),-38,0.0,3,-2%,-8,
Cc1ccc(S(=O)(=O)N(C)C)cc1NC(=O)COC(=O)CCC(=O)c1ccc(F)cc1,-38,0.9,1,-3%,2,
COc1cnn(-c2ccc(C)cc2)c(=O)c1SCc1ccccc1,-7,-3.0,-2,6%,-2,
CC(C)NC(=S)Nc1ccc(S(=O)(=O)Nc2ncccn2)cc1,-17,-1.3,2,71%,-2,
CCN(CC)c1ccc(CN2CC=C(c3ccc(F)cc3)CC2)cc1,12,2.1,1,7%,48,
Cc1nn2c3ccccc3n(CC(=O)c3cccs3)c2nc1=O,.,-1.7,4,3%,-7,
COc1cc(CN2CCN(c3cccc(Cl)c3)CC2)cc(OC)c1OC,-23,2.1,-19,-4%,-6,
COc1ccc(OC2C(=O)N(Cc3ccc4c(c3)OCO4)C2c2sccc2C)cc1 (stereo unspecified),-55,17,-6,-1%,-1,
Cc1ccc(/C=N/NC(=O)c2nnn(-c3nonc3N)c2CN(C)C)s1,.,-0.5,.,.,-1,
CC(Sc1ncnc2sccc12)C(=O)Nc1ccc(C(N)=O)cc1 (stereo unspecified),.,0.2,8,-8%,3,
CCOc1ccccc1NC(=O)C(=O)NCCC1=CCCCC1,.,-3.3,0,7%,-1,
Cc1cccc(-n2c(O)c(/C=N/NC(=O)c3ccncc3)c(=O)[nH]c2=O)c1,.,2.3,.,.,99,
O=c1c2ccccc2nnn1CSc1ccc2c(c1)OCCO2,3,-0.9,2,-5%,-4,
CC1CC(C)CN(CC(=O)N2CCCc3c2c(=O)oc2ccc(OCc4ccccc4)cc32)C1 (stereo unspecified),2,11,-29,-2%,86,
Cc1ccc(-c2nnc(NCc3nc4ccccc4[nH]3)c3ccccc23)cc1S(=O)(=O)N(C)C,-28,3.0,-6,1%,9,
COC(=O)c1cnc2c(c1C(=O)OC)c(=O)n(C)c(=O)n2C,-15,5.3,0,1%,-1,
CC(=O)NS(=O)(=O)c1ccc(NC(=O)CC23CC4CC(CC(Br)(C4)C2)C3)cc1,.,0.8,.,.,-12,
c1ccc(Cn2cc(CN3CCCCO3)c(-c3ccc4c(c3)OCO4)n2)cc1,.,8.2,2,6%,4,

# By substructure: the entries above with a thiophene ring, fused or not
SMILES,YopH PTP inh,RecA splice inh,Arbovirus anti,Mtb H37Rv,Mtb betalactam,others
COC(=O)c1sc2ccccc2c1NC(=O)c1ccc(S(=O)(=O)N2CCC(C)CC2)cc1,-23,0.3,5,0%,0,
Cc1nc(C(C)NC(=O)CCc2nnc(-c3ccsc3)o2)cs1 (stereo unspecified),.,-0.6,3,8%,6,
O=C(c1cc2ccccc2s1)N1CCN(c2ccccn2)CC1,.,2.7,.,.,3,
Cc1cc(C(=O)NNC(=O)c2cccs2)nn1C(C)(C)C,.,-0.2,.,.,-3,
Cc1nn(C(C)C(=O)NCCCN(Cc2ccccc2)C(C)C)c(=O)c2c1sc1ccccc12 (stereo unspecified),.,1.7,.,.,9,
Cc1cc(C(=O)CCC(=O)NCC2COc3ccccc3O2)c(C)s1 (stereo unspecified),.,1.8,.,.,-4,
CCn1c(=O)n(CC(=O)NCC2CCCO2)c(=O)c2c3c(sc21)CCCC3 (stereo unspecified),.,0.5,.,.,-1,
Cc1nn2c3ccccc3n(CC(=O)c3cccs3)c2nc1=O,.,-1.7,4,3%,-7,
COc1ccc(OC2C(=O)N(Cc3ccc4c(c3)OCO4)C2c2sccc2C)cc1 (stereo unspecified),-55,17,-6,-1%,-1,
Cc1ccc(/C=N/NC(=O)c2nnn(-c3nonc3N)c2CN(C)C)s1,.,-0.5,.,.,-1,
CC(Sc1ncnc2sccc12)C(=O)Nc1ccc(C(N)=O)cc1 (stereo unspecified),.,0.2,8,-8%,3,
